ALR H2O2 inh: blocks human ALR sulfhydryl oxidase activity; P55789; inhibition, % (test concentration not listed); 290,000 tested, 3.8% active; purified ALR, DTT oxidation, H2O2 HRP-luminol luminescence;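 active = mean and each replicate at 75% or more; inconclusive = only one of the two met; inactive = neither met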;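 also: stock transfer was 7.5 nL into about 7.5 µL; 0% = neutral wells and 100% = wells with inactivated enzyme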
Target sequence (P55789 whole entry, looked up): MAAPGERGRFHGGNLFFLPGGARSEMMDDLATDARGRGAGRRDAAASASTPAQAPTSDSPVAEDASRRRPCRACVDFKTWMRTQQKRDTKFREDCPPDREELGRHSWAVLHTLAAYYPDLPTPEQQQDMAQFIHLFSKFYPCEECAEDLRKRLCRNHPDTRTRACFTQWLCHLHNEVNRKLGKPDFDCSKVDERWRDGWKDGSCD
T cruzi inh: T. cruzi replication inhibition | T. cruzi beta-gal in NIH3T3, luminescence, 90 h | inhibition, % (no concentration beside the values) | 300,000 tested, 1.4% active;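 active = mean inhibition across valid replicates above about 55%, limit read from the data; inconclusive = mean below that limit but half or more replicates reach it; inactive = mean below it, under half of replicates reach it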;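 also: signal also drops with host cell toxicity which is not excluded here; 0% = plate median of DMSO wells and 100% = zero luminescence signal; higher percent means less beta-gal luminescence so fewer parasites; stock transfer was 50 nL into about 50 µL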
rRNA inh HTS: inhibits bacterial ribosomal RNA function over humanized ribosomes | E. coli WT GFP vs humanized-ribosome RFP mutants, fluorescence, 24 h; hits give low values; DMSO median 0, no signal -100 | GFP signal change (wild-type ribosome), % (test concentration not listed) | 350,000 tested, 1.6% active | AID 720706;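 active = significant combined selectivity score with lowered wild-type GFP, culture density cut under 30%, mutant RFP and density less affected; inactive = any of these conditions unmet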; also: one replicate is shown; some compounds called inactive have numbers as strong as hits
MLL AF4-AF9 inh: inhibitors of human MLL-AF4/AF9 interaction | P42568 | AlphaScreen, biotin-AF4 peptide binding to FLAG-AF9 | inhibition, % at 10 µM | 350,000 tested, 0.47% active;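 active = every replicate reaching a set inhibition limit, whatever the replicate mean, cut at about 25% in these data; inconclusive = mean inhibition reaches that limit but some replicates miss it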;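 also: 0% = plate neutral control median and 100% = total signal loss; the record names both 10 and 1 µM as test concentration; the first replicate is given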
Target sequence (P42568 whole entry, looked up): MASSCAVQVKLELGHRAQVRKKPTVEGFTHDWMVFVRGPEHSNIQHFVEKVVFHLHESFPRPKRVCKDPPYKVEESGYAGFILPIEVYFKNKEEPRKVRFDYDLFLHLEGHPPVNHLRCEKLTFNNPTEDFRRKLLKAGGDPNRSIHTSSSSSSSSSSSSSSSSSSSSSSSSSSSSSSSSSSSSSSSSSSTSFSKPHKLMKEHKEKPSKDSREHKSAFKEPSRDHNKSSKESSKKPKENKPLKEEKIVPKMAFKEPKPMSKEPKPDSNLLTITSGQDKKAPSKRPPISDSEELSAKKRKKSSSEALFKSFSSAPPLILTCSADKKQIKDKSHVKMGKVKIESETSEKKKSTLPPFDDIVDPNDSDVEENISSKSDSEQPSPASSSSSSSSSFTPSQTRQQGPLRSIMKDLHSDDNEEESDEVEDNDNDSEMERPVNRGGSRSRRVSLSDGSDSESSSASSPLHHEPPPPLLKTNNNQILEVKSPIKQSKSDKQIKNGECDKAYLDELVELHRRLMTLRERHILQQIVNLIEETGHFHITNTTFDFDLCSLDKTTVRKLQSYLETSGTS
RanGTP-Imp inh: disruptors of Ran-importin-beta complex formation – biochemical, FRET, CFP-Ran, YFP-importin-beta, homogeneous, primary screen | inhibition, % (concentration not given with the values) | AID 2216 | 300,000 tested, 1.1% active | cell-free CFP-Ran/YFP-importin-beta FRET ratio;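 active = most replicates above 15%; inconclusive = exactly half above 15%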;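 also: 0% = DMSO wells and 100% = Ran loaded with GDP instead of GTP; wells of about 40 µL received 100 nL stock; the first replicate is given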
FGF22 binding: binders of recombinant human FGF22 by thermal shift. 340,000 tested, 1.5% active. Q9HCT0. SYPRO orange fluorescence; percent of sucrose octasulfate shift, DMSO zero. calls only at 9.99 µM;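 active = melting point raised past a set limit in the mean and every replicate; inconclusive = no clear call; three in four hits are not shown here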
Target sequence (Q9HCT0 whole entry, looked up): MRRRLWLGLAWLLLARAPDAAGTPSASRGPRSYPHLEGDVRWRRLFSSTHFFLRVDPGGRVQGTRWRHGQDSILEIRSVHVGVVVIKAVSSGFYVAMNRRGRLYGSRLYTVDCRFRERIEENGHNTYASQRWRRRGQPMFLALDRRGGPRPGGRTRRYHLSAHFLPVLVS
Calb FLC: affects C. albicans growth with fluconazole. growth inhibition, % (no concentration beside the values). C. albicans CaCi-2 (fluconazole-resistant clinical isolate) + fluconazole, Alamar Blue growth, 48 h. AID 1979. 300,000 tested, 0.57% active;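 active = most replicates above 75%; inconclusive = exactly half above 75%; inactive = most below 75%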;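 also: all wells also contain fluconazole at 8 µg/ml as a sub-toxic cotreatment; 0% = median of DMSO wells and 100% = median of geldanamycin control wells; wells of about 8 µL received 7.5 nL stock; the first replicate is given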
Beta cell apopt: blocks beta cell apoptosis | INS-1E cytokine-induced death, ATP luminescence, 48 h; percent of positive-control rescue, neutral wells zero | protection from apoptosis, % (test concentration not listed) | 300,000 tested, 0.8% active | AID 435005;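 active = all replicates at 75% or more, or half of them and the mean; inconclusive = half reach 75% but not the mean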;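 also: 0% = cytokine-treated negative control wells and 100% = positive control rescue; higher means more ATP so stronger rescue from cytokine killing; wells of about 40 µL received 100 nL stock; the first replicate is given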
rRNA inh HTS OD600: recorded beside rRNA inh HTS, whose call it bears; OD600 change, %; measured here: OD600 growth;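 optical density of the mix in the first replicate; 0 = DMSO median and -100 = no signal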
rRNA inh HTS RFP: recorded beside rRNA inh HTS, whose call it bears; RFP signal change, %; measured here: RFP humanized mutant strains;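 first replicate; 0 = DMSO median and -100 = no signal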
* hit, by the source's call; i = inactive; ? = inconclusive; . = not tested or not shown.

SMILES	ALR H2O2 inh	T cruzi inh	rRNA inh HTS	rRNA inh HTS OD600	rRNA inh HTS RFP	MLL AF4-AF9 inh	RanGTP-Imp inh	FGF22 binding	Calb FLC	Beta cell apopt
CC(C)(C)NC(=O)CCc1ncc(C(F)(F)F)cc1Cl	-6	-7	9	2	0.9	-2.0	-1.7	i	-3	-4
COc1ccc(-c2csc(N3CCC(C(N)=O)(N4CCCCC4)CC3)n2)cc1	-5	9	.	.	.	.	-5.2	.	4	-10
CCOC(=O)C1CCN(C(=O)COc2ccc(N(C)S(=O)(=O)c3cccs3)cc2)CC1	-36	9	.	.	.	.	5.7	.	-2	-2
O=C(CSc1nnc(Nc2ccccc2F)s1)Nc1cccc(S(=O)(=O)N2CCCCC2)c1	-4	2	.	.	.	.	1.3	.	-4	7
CCCCOc1nc2ccccc2nc1NS(=O)(=O)c1ccc(F)cc1	-50	-2	0	3	3.9	1.6	4.5	i	18	5
CCCCC(CC)C(=O)Nc1ccc(C)c(O)c1 (stereo not drawn)	5	14	-2	5	-4.3	3.4	-2.7	i	-8	-2
COc1ccc(N2C3=C(C(=O)CC(C)(C)C3)C(c3cnn(C)c3)C3=C2CC(C)(C)CC3=O)cc1	-9	28	9	-2	0.4	5.2	57*	i	1	0
CCC(C#CCN1CCOCC1)(CC)OCCC#N	-2	0	.	.	.	.	2.1	.	-1	1
Cc1csc(SCC(=O)Nc2ccc3[nH]c(=O)[nH]c3c2)n1	-15	.	-5	-4	-3.1	-58	.	i	.	-2
COc1ccc(OC)c(CCNC(=O)CCn2ccc3cc(S(=O)(=O)N4CCCC4)ccc32)c1	-5	24	-8	-18	-1.0	4.9	-2.6	i	-7	-3
CCCCN(C)C(=O)c1cc2cc3cc(OC)ccc3nc2o1	47	17	.	.	.	.	?	.	6	4
COc1ccc(S(=O)(=O)N2CCc3ccccc32)cc1NC(C)=O	-15	-4	1	3	-2.0	0.3	-1.5	.	-3	-1
CCOc1ccccc1NC(=O)COC(=O)c1ccc2ccccc2n1	0	.	.	.	.	-1.7	.	i	.	-3
O=C(c1ccccc1Br)N1CCc2c([nH]c3ccccc23)C1	83*	14	-34	-35	-8.6	4.5	5.0	i	8	-8
CC(C)(C)OC(=O)NCCCCCNC(=O)c1nc[nH]c1C(=O)NCC(=O)OCc1ccccc1	1	.	10	10	5.3	-0.3	.	i	.	-3
Cc1cccc(-c2nc(=S)c3c(n2Cc2ccco2)CCCC3)c1	?	9	.	.	.	.	1.1	.	3	6
O=C(CSc1nc2c(c(C(F)(F)F)n1)CCc1ccccc1-2)NCc1ccccc1	-4	33	.	.	.	.	-3.4	.	-2	2
Cc1sc2nc(C(C)C)oc(=O)c2c1C	0	-24	.	.	.	.	5.8	.	5	-2
O=C(NCCN1C(=O)S/C(=C\c2ccc(Cl)c(Cl)c2)C1=O)c1ccc2c(c1)C(=O)N(Cc1ccncc1)C2=O	-3	4	10	7	6.8	-8.3	3.5	i	-14	18
O=C(CSCc1cccc(Br)c1)NC1CC1	98*	-20	4	-1	-9.0	-6.0	-0.5	i	20	-19
CCOC(=O)C1CCN(C/C=C/c2ccccc2OC)CC1	2	8	.	.	.	.	1.7	.	10	0
OC1(c2ccc(Cl)cc2)CCN(Cc2c[nH]c3ccccc23)CC1	-7	30	12	-10	6.3	8.2	?	i	-5	.
CCc1nc(SCC(=O)Nc2ccc(F)cc2F)c2c(=O)n(C)c(=O)n(C)c2n1	0	-3	-13	-8	-4.1	-0.9	-1.4	i	0	5
c1ccc(SCCc2ccncc2)cc1	-3	28	.	.	.	.	0.6	.	-2	-1
O=C1CCCN1C(=O)COc1ccccc1[N+](=O)[O-]	-12	-3	0	-2	-0.1	-27	2.0	i	6	-2
Further entries.
SMILES	ALR H2O2 inh	T cruzi inh	rRNA inh HTS	rRNA inh HTS OD600	rRNA inh HTS RFP	MLL AF4-AF9 inh	RanGTP-Imp inh	FGF22 binding	Calb FLC	Beta cell apopt
O=C(CCN1C(=O)C2CC=CCC2C1=O)Nc1nccs1 (stereo not drawn)	1	-10	8	9	-2.3	-0.8	1.8	i	8	-7
COC(=O)c1sccc1NC(=O)c1ccco1	7	-2	.	.	.	.	2.9	.	-1	0
CC(Oc1ccc(Cl)cc1)C(=O)/C=C/N(C)C (stereo not drawn)	-10	3	.	.	.	.	7.0	.	-20	4
O=C(Nc1nccs1)c1ccc(N2C(=O)[C@@H]3[C@H](C2=O)[C@H]2C=C[C@@H]3C2)cc1	-9	-45	0	3	-5.4	-25	0.7	i	?	-11
Cc1cnc(NC(=O)c2c(-c3ccccc3)noc2C)s1	-5	-4	4	-8	0.3	1.4	-4.5	i	-5	-5
COC(=O)c1c(N)sc2c1CCN(c1ncc(C(F)(F)F)cc1Cl)C2	5	11	.	.	.	.	4.8	.	0	3
Cn1c(=O)c(=O)n(C)c2cc(S(=O)(=O)Nc3ccc4c(c3)OCCO4)ccc21	-47	2	.	.	.	.	?	.	1	3
COC(=O)c1ccc(COc2ccccc2/C=N/NS(=O)(=O)c2ccc(C)cc2)cc1	-1	13	.	.	.	.	-5.2	.	16	-5
O=C(Nc1cc(Cl)ccc1-n1cncn1)c1cncc(Br)c1	-4	1	-1	-1	-3.7	0.1	2.1	.	-6	-1
CC(=O)Nc1cc(-c2nn(C)c(=O)c3ccccc23)ccc1N1CCOCC1	-5	6	.	.	.	.	-3.4	.	0	-2
COc1ccc(C(=O)c2ccc(-c3ccc(OC)cc3)nc2)cc1	.	-3	15	5	2.3	-0.1	-1.9	i	5	.
COc1ccc(Cc2nnc(SCC(=O)Nc3cc(Cl)ccc3C)[nH]c2=O)cc1	6	6	-11	-11	-1.5	5.2	-2.9	i	3	.
COCCNC(=O)C(C)OC(=O)c1nsc(Cl)c1Cl (stereo not drawn)	-7	-10	.	.	.	.	-2.3	.	-6	-9
CCN1CCN(CC(=O)c2c[nH]c3ccc(C)cc23)CC1	26	12	.	.	.	.	-12	.	14	-5
O=C(CN1CCN(c2ccccn2)CC1)Nc1ccc(OC(F)(F)F)cc1	0	0	6	15	0.2	-3.5	0.3	i	3	2
O=C(N/N=C/c1ccsc1)c1cc(-c2cccs2)nc2ccccc12	0	-17	3	-3	3.4	-4.8	-0.4	i	-5	8
O=C(O)Cc1sc(-c2ccccc2Cl)nc1-c1ccccc1	99*	-3	.	.	.	.	4.7	.	16	6
O=C(O)C1CCN(C(=O)COc2ccc(Br)cc2)CC1	-1	-1	10	9	-3.4	0.5	5.5	i	8	-3
Cc1[nH]c2ccccc2c1/C=N\NC(=O)c1ccco1	58	.	0	7	0.0	1.3	.	i	-16	-8
CCC(c1nnnn1Cc1ccco1)N(CCN1CCOCC1)Cc1cc2cc(C)ccc2[nH]c1=O (stereo not drawn)	.	-6	.	.	.	.	-2.8	.	-5	-9
CC1CN(S(=O)(=O)c2ccc(C(=O)NC3CCCCC3)cc2)CC(C)O1 (stereo not drawn)	.	.	21	11	4.3	2.2	.	i	.	-1
O=C(Nc1ccccc1F)c1ccc([N+](=O)[O-])s1	.	65*	-51	-76	-27	-4.1	1.2	i	7	9
COc1ccc(OC)c(NC(=O)C2CCN(c3ncccn3)CC2)c1	-23	-1	.	.	.	.	.	.	-17	-2
Cc1nn(-c2ccc(F)cc2)c(Cl)c1/C=N/NC(=O)c1cccc(S(=O)(=O)N2CCCC2)c1	-12	-7	9	14	0.5	-5.7	-0.5	i	-23	4
Cc1ccc(-c2nc(C#N)c(N3CCC(C(N)=O)CC3)o2)cc1	-5	-1	-4	-8	-3.0	0.6	0.9	i	4	.
O=C(NCCC(=O)N(CCc1ccccc1)Cc1ccccc1)c1ccccc1Cl	0	-5	-7	-44	7.3	11	-0.3	i	5	0
COc1ccc(CNC(=O)CCN2C(=S)NC(C)(C)CC2C)cc1 (stereo not drawn)	.	0	3	2	-1.9	-0.7	-7.0	i	-12	-3
O=C(Nc1ccc(Cl)cn1)c1ccc(Oc2ccccc2)cc1	0	11	2	0	-0.5	1.5	-2.2	i	-1	-6
Cc1ccc(NC(=O)c2cc(S(=O)(=O)N3CCCC3)cn2C)cc1C	-2	1	11	14	-0.2	2.9	0.1	i	4	-10
O=C(Nc1cccc(S(=O)(=O)NC2=NCCCCC2)c1)c1cc(-c2ccc(Cl)cc2)nc2ccccc12	2	25	1	5	4.2	6.6	-2.7	i	-4	12

An excerpt from above with just T cruzi inh, Calb FLC and rRNA inh HTS OD600:
SMILES	T cruzi inh	Calb FLC	rRNA inh HTS OD600
CC(Oc1ccc(Cl)cc1)C(=O)/C=C/N(C)C (stereo not drawn)	3	-20	.
CC(=O)Nc1cc(-c2nn(C)c(=O)c3ccccc23)ccc1N1CCOCC1	6	0	.

Structures from the list above containing two or more sulfur atoms, in the order listed:
SMILES	ALR H2O2 inh	T cruzi inh	rRNA inh HTS	rRNA inh HTS OD600	rRNA inh HTS RFP	MLL AF4-AF9 inh	RanGTP-Imp inh	FGF22 binding	Calb FLC	Beta cell apopt
CCOC(=O)C1CCN(C(=O)COc2ccc(N(C)S(=O)(=O)c3cccs3)cc2)CC1	-36	9	.	.	.	.	5.7	.	-2	-2
O=C(CSc1nnc(Nc2ccccc2F)s1)Nc1cccc(S(=O)(=O)N2CCCCC2)c1	-4	2	.	.	.	.	1.3	.	-4	7
Cc1csc(SCC(=O)Nc2ccc3[nH]c(=O)[nH]c3c2)n1	-15	.	-5	-4	-3.1	-58	.	i	.	-2
O=C(N/N=C/c1ccsc1)c1cc(-c2cccs2)nc2ccccc12	0	-17	3	-3	3.4	-4.8	-0.4	i	-5	8

Quoted from the listing, 2 compounds:
SMILES	ALR H2O2 inh	T cruzi inh	rRNA inh HTS	rRNA inh HTS OD600	rRNA inh HTS RFP	MLL AF4-AF9 inh	RanGTP-Imp inh	FGF22 binding	Calb FLC	Beta cell apopt
O=C(CCN1C(=O)C2CC=CCC2C1=O)Nc1nccs1 (stereo not drawn)	1	-10	8	9	-2.3	-0.8	1.8	i	8	-7
COC(=O)c1sccc1NC(=O)c1ccco1	7	-2	.	.	.	.	2.9	.	-1	0

Single values from the list.
Entry for O=C(O)C1CCN(C(=O)COc2ccc(Br)cc2)CC1 under Beta cell apopt: -3
Entry for COc1ccc(C(=O)c2ccc(-c3ccc(OC)cc3)nc2)cc1 under rRNA inh HTS: 15
Entry for O=C(O)Cc1sc(-c2ccccc2Cl)nc1-c1ccccc1 under Beta cell apopt: 6
Entry for COc1ccc(Cc2nnc(SCC(=O)Nc3cc(Cl)ccc3C)[nH]c2=O)cc1 under T cruzi inh: 6
Entry for COC(=O)c1sccc1NC(=O)c1ccco1 under ALR H2O2 inh: 7
Entry for Cc1[nH]c2ccccc2c1/C=N\NC(=O)c1ccco1 under rRNA inh HTS OD600: 7
Entry for CC(=O)Nc1cc(-c2nn(C)c(=O)c3ccccc23)ccc1N1CCOCC1 under Beta cell apopt: -2

Source: PubChem (Broad Institute)

An excerpt, so the mix of outcomes need not match the whole.
